# miR-21 FLuc: qHTS Assay for Modulators of miRNAs and/orActivators of miR-21; Potency, µM (highest dose often 38.3 µM), for the others: top-dose reporter change, positive = more light; 340,000 tested, under 10 active; AID 2288, 2010; HeLa miR-21 FLuc reporter, luciferase, 48 h; active = well fitted rising curve with a large enough effect; inconclusive = small, poorly fitted or top-dose-only effect; inactive = no such curve, though single readings can be large or run the other way;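 note: % of control where 0% means no effect; miR-21 action dims this reporter so a rising signal means less miR-21 action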
#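 Compounds were titrated across several concentrations (up to approximately 40 uM) and incubated 48 hours with HeLa miR-21-FLuc reporter cells (miR-21 target sequence downstream of FLuc, endogenous miR-21). Readout was firefly luciferase luminescence after lytic detection reagent.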
# GLA inh pH 4.5: qHTS Assay for Inhibitors of Human alpha-Galactosidase at pH 4.5. AID 1467, 2008. 230,000 tested, under 10 active. activity change, negative = inhibition, % at 105 µM. purified enzyme, 4-MU-alpha-Gal fluorescence, pH 4.5. Alpha-galactosidase A (Homo sapiens), P06280; inconclusive = small, poorly fitted or top-dose-only inhibition, or a rising curve; inactive = flat fitted curve, though single readings scatter; no compound was filed as active;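 note: 0% = full activity with enzyme and -100% = basal without enzyme; dose as in the result columns while the protocol names 77 µM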
# Target sequence (P06280 whole entry, looked up): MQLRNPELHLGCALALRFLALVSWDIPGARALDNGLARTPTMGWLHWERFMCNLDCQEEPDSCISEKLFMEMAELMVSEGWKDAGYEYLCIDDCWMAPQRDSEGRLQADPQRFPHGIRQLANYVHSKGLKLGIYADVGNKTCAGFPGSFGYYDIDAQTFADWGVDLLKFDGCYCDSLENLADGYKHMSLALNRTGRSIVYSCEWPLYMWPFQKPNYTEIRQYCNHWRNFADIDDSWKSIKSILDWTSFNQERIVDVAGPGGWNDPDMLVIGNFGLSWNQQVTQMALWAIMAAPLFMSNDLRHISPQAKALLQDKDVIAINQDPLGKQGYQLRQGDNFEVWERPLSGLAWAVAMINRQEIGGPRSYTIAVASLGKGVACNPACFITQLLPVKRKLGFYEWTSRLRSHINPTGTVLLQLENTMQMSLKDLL
# Rango release inh: qHTS Assay for Inhibitors of RanGTP induced Rango (Ran-regulated importin-beta cargo) - Importin beta complex dissociation; Snurportin-1 (Homo sapiens) + GTP-binding nuclear protein Ran (Homo sapiens) + Importin …; Biochemical FRET Rango-importin beta, RanGTP-induced dissociation; Potency, µM (top dose mostly 46.1 µM), without a hit: top-dose activity change, negative = inhibition; 340,000 tested, 0.071% active; active means falling FRET ratio curve, often poorly fitted, with flat reads before Ran was added; inconclusive means other falling curves, or compound fluorescence or quenching; inactive means flat or rising ratio curve;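 note: potency is the fitted concentration of half-maximal effect; % of control where 0% means no effect; nearly all actives have a fitted effect of over 45% in size; -100% = wells without RanGTP and RCC1; the record marks most hits as doubtful in a second field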
#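 Recombinant Rango FRET biosensor (EYFP–snurportin 1 IBB–cerulean CFP10) at 0.1 uM premixed with 0.25 uM importin beta in PBS, 1 mM DTT, 0.02% Tween-20, 0.1% BSA. Compound added 5 min; RanGTP-RCC1 (0.6 uM Ran, 2 mM GTP, 0.2 uM RCC1) then triggers release, read at 45 min.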
# Rango complex inh: qHTS Assay for Inhibitors of Rango (Ran-regulated importin-beta cargo) - Importin beta complex formation | Importin subunit beta-1 (Homo sapiens), Q14974 | Potency, µM (highest dose often 92.2 µM), for the others: at the top dose inhibition of complex formation | 340,000 tested, 0.031% active | AID 540263, 2011 | Rango CFP/YFP FRET sensor + importin beta, 45 min; active = rising FRET ratio curve, often small or poorly fitted; inconclusive = mostly compound fluorescence or quenching in the first reads; inactive = flat curves in all reads;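 note: potency is the fitted concentration of half-maximal effect; 0% = DMSO wells and 100% = buffer wells lacking importin beta; nearly all actives have a fitted effect of over 15% in size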
#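 FRET biosensor Rango (snurportin 1 IBB between N-terminal EYFP and C-terminal Cerulean), 50 nM in PBS/1 mM DTT/0.02% Tween-20/0.1% BSA, preincubated 5 min RT with compound; 0.125 microM importin beta added, 45 min RT, CFP/YFP FRET ratio read.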
# Active calls of the source: *; ? = inconclusive; . = not tested or not shown; & = joins results of further samples; [ ] = another dose, or the depositor's remark. This is a subset, so the mix of outcomes need not match the whole.
Compound	Rango complex inh	Rango release inh	GLA inh pH 4.5	miR-21 FLuc
CCCCNC(=O)O[C@H]1C[C@@H]2CCN3C(=O)CCC(C)(C)[C@H](C1)[C@H]23	-0.7%	2%	.	-1%
COc1ccc(Cc2nnc(NC(=O)c3cccc(F)c3)s2)cc1OC	0.7%	5%	.	-1%
O=C1C2=C(NC(=S)NC2c2ccc(Cl)cc2)NC(c2ccc(Cl)cc2)N1c1ccc(Cl)cc1 (stereo unspecified)	-6.7%	-14%	-20	20%
CCN(CC)c1ccc2cc(NC(=O)CCC(=O)O)c(=O)oc2c1	?	?	-5	?
O=C(NCCCCc1ccccc1)Nc1ccc(F)cc1F	-4.4%	0%	.	-19%
Cc1noc(C)c1S(=O)(=O)N1CCC(C(=O)N2CCC(C)CC2)CC1	0.1%	20%	1	-3%
CCCn1c(=O)c(-c2ccccc2)c(O)c2ccccc21	1.8%	-14%	2	0%
CCCCCSc1nnc(C)c(=O)[nH]1	-0.9%	-13%	-8	-3%
COc1cccc(NC(=O)CCC(=O)NCc2ccco2)c1	0.1%	1%	1	-7%
CC(=O)c1ccc(N2CCN(Cc3nc(Cc4ccccc4)no3)CC2)cc1	0.0%	-14%	-3	8%
CC(C)(C)OC(=O)C[C@H]1C/C=C\C[C@H](CC(=O)NCCO)C(=O)N[C@@H](Cc2ccccc2)COC1=O	-1.3%	13%	.	.
Cc1ccc(NC(=O)c2ccc(C(C)(C)C)cc2)cc1[N+](=O)[O-]	0.4%	2%	-7	-66%
Cc1cc(C)cc(NC(=S)N(Cc2ccc(Cl)cc2)Cc2ccc(C(=O)O)cc2)c1	0.9%	-20%	-8[21.1 µM]	2%
CC(=O)n1cc([C@H]2C=C(C(=O)N3CCN(Cc4ccc5c(c4)OCO5)CC3)O[C@@H](OCCCCO)C2)c2ccccc21	0.7%	-4%	1	-1%
CCCCCNC(=O)c1cc(S(=O)(=O)N2CCCC2)ccc1F	0.4%	-22%	-2	-11%
CC(C)N1C(=O)CCC1C(=O)NCCc1ccc(Cl)cc1 (stereo unspecified)	1.7%	?	5	-5%
COc1cc(C(=O)N/C(=C\c2cn(S(=O)(=O)N(C)C)c3ccccc23)C(=O)N2CCCC2)cc(OC)c1OC	0.2%	9%	.	0%
CC(OC(=O)Cn1cnc2c1c(=O)n(C)c(=O)n2C)C(=O)NC1CCCCC1C (stereo unspecified)	9.1%	-11%	.	.
COCCn1c(SCC(=O)Nc2cccc(OC)c2)nc2c(oc3ccccc32)c1=O	2.8%	-7%	-4	4%
Cc1c(C)n(CCN(C)C)c2ncnc(NCc3ccccc3)c12	-2.0%	-5%	.	-16%
CCN(Cc1ccccc1)C(=O)CC(=O)N(CC)Cc1ccccc1	0.2%	-13%	.	8%
CC1CNCCN1S(=O)(=O)c1cccc2cnccc12 (stereo unspecified)	-1.9%&-1.0%	-4%&8%	-6&-1	-3%
Cc1ccc(-c2noc(CCC(=O)NCCN3CCOCC3)n2)cc1	-0.4%	2%	-8	-5%
O=C1CSc2ccc(S(=O)(=O)NCc3ccc(Cl)cc3)cc2N1	-2.0%	14%	.	-4%
CCC(C(=O)N(C(C)C)C(C)C)c1ccccc1 (stereo unspecified)	4.0%	-17%	.	.
O=C(O)c1cc2cccc(S(=O)(=O)N3CCOCC3)c2cc1O	?	-21%	-2	-4%
CC(=O)Nc1cc(N2C(=O)CCC2=O)ccc1Cl	-0.9%	-3%	-14	-1%
Cc1nc2ccccn2c1C(=O)N/N=C/c1ccccc1Cl	0.5%	1%	.	-4%
COC(=O)c1sc(NC(=S)NC(=O)c2ccccc2F)nc1C	-2.2%	-4%	-8	-46%
CCOC(=O)c1ccc(Oc2nc(NC)nc(SC)n2)cc1	-0.1%	8%	4	-5%
COc1ccc2nc(NC(=O)CSc3nc4ccccc4o3)sc2c1	-1.4%	0%	2	-45%
O=C(CN1CCC(Cc2ccccc2)CC1)N1CCc2ccccc2C1	4.1%	24%	4	-3%
Cc1ccc(-c2nc3ccccc3[nH]2)cc1NC(=O)c1ccc2c(c1)OCO2	1.5%	-4%	4	0%
O=C(CSc1nnc(Cc2ccccc2)o1)c1ccccc1	0.5%	-7%	2	-42%
COCCCNC(=O)c1cc(C(=O)c2c(-c3c(Cl)cccc3Cl)noc2C)c[nH]1	-0.7%	23%	4	22%
O=C1c2sc3nc4ccccc4n3c2C(=O)N1c1ccccc1Cl	1.9%	1%	-2	-34%
CCOC(=O)Cc1ccc(NC(=O)c2ccc([N+](=O)[O-])cc2)cc1	-3.0%	8%	0	-10%
Cc1cccc(C(C)C)c1NC(=O)c1cc2ccccc2o1	-2.5%	8%	.	5%
Cc1ccc(-c2noc(CCCC(=O)NCC3CCCO3)n2)cc1 (stereo unspecified)	-3.0%	-22%	.	18%
COc1cccc(OC)c1OCCCc1c(C)n[nH]c1C	-1.1%	-13%	-6	-5%
Cc1ccc(OCC(=O)NCc2ccccn2)cc1	-1.2%	3%	7	-4%
COc1ccc(CNC(=O)CN2C(=O)C(c3ccccc3)Oc3cccnc32)cc1 (stereo unspecified)	-2.9%	-8%	.	-9%
Cc1ccc(C(=O)O/N=C(\N)c2ccccn2)cc1Cl	?	0%	.	3%
Cc1ccc2c(c1)nnn2C1CCN(C(=O)NCc2ccccc2)CC1	-3.3%	2%	5	-5%
COc1ccc(C)cc1NS(=O)(=O)c1ccc(Br)s1	0.0%	-4%	0	9%
CCCCOc1ccc(S(=O)(=O)n2c(C)nc3ccccc32)cc1	1.1%	-15%	-2	1%
CCOC(=O)CCC(=O)NNC(=O)COc1ccc(C(C)C)cc1Br	4.1%	-6%	-1	-10%
Cc1ccc(-c2ncns2)cc1	1.1%	?	-7	2%
O=C1C2C3c4ccccc4C(c4ccccc43)C2C(=O)N1c1nc(-c2ccccc2)cs1 (stereo unspecified)	-0.3%	16%	2	-2%
COC(C[C@H](O)CC(=O)COCc1ccccc1)OC	0.6%	-6%	5	1%
Cc1cc2c(C)c(C)c(=O)[nH]c2cc1N	-0.5%	-1%	?	0%
Cc1cc2c(cc1C)C(=O)C(Br)=C(N)C2=O	2.8%	7%	.	.
Cc1ccc2cc(CN(Cc3ccco3)C(=S)NCC3CCCO3)c(=O)[nH]c2c1 (stereo unspecified)	-0.2%	2%	3	-1%
COC(=O)c1c(C)[nH]c(C(=O)C(C)OC(=O)C2CC(=O)N(CCc3ccccc3)C2)c1C (stereo unspecified)	-2.2%	-7%	.	.
Cc1ccc(OCC(=O)Nc2ccc(N3CCOCC3)cc2)cc1	0.0%	-8%	5	-7%
COc1ccc(NC(=O)C2CCN(c3nnnn3-c3ccccc3)CC2)cc1	-3.3%	-1%	-6	-5%
CN=C(Nc1cc(C)nn1CCC#N)c1ccccc1	2.2%	0%	2	-2%
N#CCC(=O)Nc1ccc(C(=O)OCC(=O)N=c2sccn2Cc2ccccc2Cl)cc1	?	-12%	.	.
O=C(NCCCN1CCN(c2ccc(F)cc2)CC1)NC12CC3CC(CC(C3)C1)C2	-1.7%	8%	.	-5%
O=S(=O)(Nc1nc2ccccc2nc1Cl)c1ccc(F)cc1	-0.2%	-6%	3	3%

# In another format: entries from further up
CCOC(=O)Cc1ccc(NC(=O)c2ccc([N+](=O)[O-])cc2)cc1
  Rango complex inh: -3.0%
  Rango release inh: 8%
  GLA inh pH 4.5: 0
  miR-21 FLuc: -10%
Cc1cccc(C(C)C)c1NC(=O)c1cc2ccccc2o1
  Rango complex inh: -2.5%
  Rango release inh: 8%
  GLA inh pH 4.5: .
  miR-21 FLuc: 5%
Cc1ccc(-c2noc(CCCC(=O)NCC3CCCO3)n2)cc1 (stereo unspecified)
  Rango complex inh: -3.0%
  Rango release inh: -22%
  GLA inh pH 4.5: .
  miR-21 FLuc: 18%

# Continued:
Compound	Rango complex inh	Rango release inh	GLA inh pH 4.5	miR-21 FLuc
COc1cccc(CC(=O)OCC(=O)N(C)CC(=O)Nc2ccc(Cl)c(C(F)(F)F)c2)c1	1.4%	3%	.	.
CCOc1ccc(CN2CCNC(=O)C2CC(=O)NCCN2CCOC2=O)cc1 (stereo unspecified)	0.8%	4%	.	-1%
COc1ccc(OC)c(N(C)S(=O)(=O)c2cc3c(cc2C)NC(=O)CO3)c1	1.5%	11%	.	1%
CC(C)(C)S(=O)N1Cc2cc(CO)cc(-c3ccccc3)c2[C@H]1CCO (stereo partly specified)	?	-16%	.	.
O=C(Nc1ccc(S(=O)(=O)Nc2nccs2)cc1)c1ccc(F)cc1	-3.3%	-8%	.	-13%
Cc1ccccc1SCC(=O)NNC(=O)c1ccccc1O	?	-13%	.	1%
COc1cccc(OCC(O)CN2CCN(c3ccccn3)CC2)c1 (stereo unspecified)	5.9%	-11%	-6	-7%
COc1cccc(/C=c2\s/c(=C\C(=O)C(C)(C)C)[nH]c2=O)c1	?	1%	1	-1%
CSc1nsc(NC(=O)CCNC(=O)c2ccc([N+](=O)[O-])cc2)n1	-0.2%	15%	.	-5%
O=S(=O)(Nc1ccc2ccccc2n1)c1ccccc1	-0.8%	0%	.	-12%
CCS(=O)(=O)c1ccc(-c2cccc(NC(=O)COc3ccc(Cl)cc3)c2)nn1	0.3%	-10%	.	0%
Cc1ccc(-c2csc(SCC(=O)Nc3cc(C)on3)n2)cc1	-1.5%	1%	-1	-15%
CC(C)N(C(=O)[C@H]1CC(CC(=O)NCCCN(C)C)C(=O)N2CCc3c([nH]c4ccccc34)[C@]12C)C(C)C (stereo partly specified)	-2.2%	1%	.	.
O=C(/C=C/c1ccccc1)N1CCN(Cc2nc3ccccc3c(=O)[nH]2)CC1	-2.1%	16%	-3	-4%
Cc1ccc(S(=O)(=O)NN2C(=O)/C(=C\c3ccc(Cl)cc3)SC2=S)cc1	2.1%	-1%	.	-4%
Cc1cc(=O)oc2c3c(cc(OCC(=O)NCCC(=O)O)c12)OC(C)(C)CC3	-4.0%	-1%	.	1%
CCN1C(=O)[C@H]2[C@@H](c3ccc(-c4ccc(OC)cc4)c(OC)c3)N[C@@](CC(C)C)(C(=O)OC)[C@H]2C1=O	2.1%	-23%	.	.
COc1ccc([N+](=O)[O-])cc1NC1CCN(C(=O)c2cccs2)CC1	0.9%	1%	.	0%
Cc1ccc(-n2nnnc2SCC(=O)N2Cc3ccccc3CC2C(=O)O)cc1 (stereo unspecified)	0.4%	-10%	-14	-1%
O=C1CCCN1c1ccc(S(=O)(=O)N2CCC(c3ccccc3)CC2)cc1	0.7%	8%	-1	0%
CCOc1ccc(CCNC(=O)c2cccc(N3CCCC3=O)c2)cc1OCC	-1.3%	0%	6	-2%
CCCCN(C)C(=O)c1ccc2c(c1)S(=O)(=O)c1ccccc1C2=O	-1.3%	1%	.	-2%
CCN(CC)CCCNC(=O)/C=C/C(=O)O	4.1%	0%	-8	0%
COc1ccccc1NS(=O)(=O)c1ccc(O)c(NC(=S)NCC2CCCO2)c1 (stereo unspecified)	1.4%	-6%	-1	-4%
COc1ccccc1-c1c(C)nn2c(NCCN3CCCC3)cc(C)nc12	3.7%	3%	4	-5%
Cn1c(=O)c2c(nc(C(O)c3ccccc3)n2C)n(C)c1=O (stereo unspecified)	2.7%	0%	.	.
O=S(=O)(NCCn1ccc2ccccc21)c1ccccc1	2.6%	8%	4	-6%
O=C(Cc1cccc2ccccc12)NCC(=O)Nc1ccccc1F	-0.6%	-7%	.	-3%

# High-throughput results (PubChem BioAssay)
